Compound activity (PubChem)
Sfp inh – Sfp phosphopantetheinyl transferase inhibition | Biochemical Sfp PPTase activity, qHTS | 310,000 compounds, 3.5% hits | Potency, µM, without a hit: max response, negative = inhibition, most hits filed as inhibitors | Q9F4F7; active means well fitted inhibition curve with a large enough effect; inconclusive means small, poorly fitted or top-dose-only effect, or another doubt; inactive means no such curve, though single readings can be large or run the other way;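 further: the enzyme is Sfp with the accession as filed and its product quenches rhodamine fluorescence; potency means the concentration at half of the fitted maximal effect; 0% = enzyme reaction without inhibitor and -100% = no enzyme wells; top concentration of the series not given in the record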
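Buffer: 50 mM Hepes-Na pH 7.6, 10 mM MgCl2, 0.01% Nonidet P-40, 0.01% BSA. Enzyme 15 nM, pre-exposed to compound 15 min; substrates then added and fluorescence change tracked over 30 min.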
gsp antagonist – antagonizes gsp, the McCune-Albright syndrome mutation. gsp-mutant cells, cAMP HTRF, 30 min; control for the full effect not named in the record. Potency, µM (titrated, usually from 76.9 µM), without a hit: top-dose activity change, negative = inhibition, usual class: inhibitors. 340,000 compounds, 0.4% hits. AID 624288; active = falling curve of any shape with a large fitted effect; inconclusive = falling curve, mostly with a smaller effect; inactive = flat or rising curve; cell line not stated here;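 further: intracellular cAMP measured with PDE inhibitor Ro 20-1724 present during compound exposure; potency means the concentration at half of the fitted maximal effect; on the % scale 0 is the no-effect control and ±100 the full control effect; nearly all actives have a fitted effect of over 65% in size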
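Measurement of cellular cAMP by homogeneous time-resolved fluorescence following a 30 min compound exposure at 37C. The PDE inhibitor […] was present throughout; the assay buffer was DPBS with 0.05% BSA and 0.005% Tween 20.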
gsp agonist – activates gsp, the McCune-Albright syndrome mutation. Potency, µM (highest dose often 76.9 µM), for inactives: at the highest dose activation (cAMP increase), hits mostly activators. 340,000 compounds, 0.13% hits. gsp mutant cells, cAMP HTRF, 30 min; control for the full effect not named in the record; active = well fitted activation curve with a large enough effect; inconclusive = small, poorly fitted or top-dose-only effect, or another doubt; inactive = no such curve, though single readings can be large or run the other way; cell line not stated here;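 further: phosphodiesterase inhibitor Ro 20-1724 added with compounds to block cAMP breakdown; potency means the concentration at half of the fitted maximal effect; nearly all actives have a fitted effect of over 60% in size; about a fifth of the inactives were tested at one dose only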
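Cells in DMEM/10% FBS with G418 were pretreated with compounds in DMSO plus […] (300 uM stock) for 30 min at 37C. cAMP was measured by HTRF (cAMP-d2 plus anti-cAMP antibody-K) after 30 min at room temperature.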
TRPV1 potentiator – enhances activation of the human vanilloid receptor TRPV1. Q8NER1. TRPV1-expressing cells, Fluo-8 calcium influx, capsaicin EC20 potentiation; host cell line not named in the record; control for the full effect not named in the record. potentiation, % at 8.33 µM. 320,000 compounds, 0.02% hits. AID 540277; active means potentiation above 80%; inconclusive means 30% to 80%; inactive means below 30%; further: 0% is about no effect
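Fluo-8 calcium influx in TRPV1-expressing cells, kinetic read (ex 480/em 520 nm). Compound added and read 3 min for agonist activity, followed by capsaicin at EC20 final and 2 min further read for enhancement.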
D2 PAM – potentiates the human D2 dopamine receptor allosterically. P14416. DiscoveRx D2 beta-arrestin cells, luminescence, 90 min; 100% = 57 uM dopamine signal. potentiation, % (no concentration beside the values). 360,000 compounds, 0.23% hits; active = potentiation of 50% or more; inconclusive = 30% to 50%; inactive = 30% or less;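 further: compound concentration not given in the record; tested on top of an EC20 dose of dopamine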
Target sequence (P14416 whole entry, looked up): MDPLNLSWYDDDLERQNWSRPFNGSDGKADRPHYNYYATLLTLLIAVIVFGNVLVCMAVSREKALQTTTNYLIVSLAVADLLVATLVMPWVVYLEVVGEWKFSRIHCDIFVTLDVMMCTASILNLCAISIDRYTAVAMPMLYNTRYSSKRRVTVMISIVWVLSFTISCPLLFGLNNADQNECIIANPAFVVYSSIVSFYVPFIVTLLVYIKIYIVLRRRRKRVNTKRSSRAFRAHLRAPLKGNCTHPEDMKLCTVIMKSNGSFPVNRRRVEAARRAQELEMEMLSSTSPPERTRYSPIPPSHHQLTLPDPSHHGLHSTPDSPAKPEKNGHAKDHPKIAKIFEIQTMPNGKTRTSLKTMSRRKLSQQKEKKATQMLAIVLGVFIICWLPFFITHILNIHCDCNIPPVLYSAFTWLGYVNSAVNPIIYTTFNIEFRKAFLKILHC
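D2 cells co-treated with compound plus 50 nM dopamine (EC20) for 90 min at 37 deg C to detect potentiation. Beta-arrestin recruitment was read as enzyme-fragment luminescence after 1 h at ambient temperature. Full response was set by 57 uM dopamine.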
ClpP mod – qHTS Assay for Activators of ClpP; purified B. subtilis ClpP, FRET peptide cleavage, 20 min; AID 651965, 2013; Potency, µM (top dose mostly 57.5 µM), without a hit: at the highest dose activity change, negative = active; 340,000 compounds, 1.9% hits; active = well fitted falling curve with a large enough effect; inconclusive = small, poorly fitted or top-dose-only effect; inactive = no such curve, though single readings can be large or run the other way; further: potency means the concentration at half of the fitted maximal effect; the source files actives as falling curves though it sought activators and does not explain the sign; nearly all actives have a fitted effect of over 65% in size; many hits overshoot -100%
Target sequence (P80244 whole entry, looked up): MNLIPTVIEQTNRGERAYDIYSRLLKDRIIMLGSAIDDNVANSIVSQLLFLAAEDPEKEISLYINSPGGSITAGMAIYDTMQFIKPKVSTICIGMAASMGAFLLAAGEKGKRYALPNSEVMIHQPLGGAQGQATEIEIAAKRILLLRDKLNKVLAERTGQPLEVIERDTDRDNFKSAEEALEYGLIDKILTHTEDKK
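Purified B. subtilis ClpP, 10 microg/mL final in Tris/HCl pH8 with KCl, BSA, glycerol and Tween-20, cleaved an Abz/nitrotyrosine-quenched decapeptide. Fluorescence (ex 320, em 430) was read at 0 and 20 min at room temperature. Delta was normalized to 5.8 microM ADEP and DMSO/no-enzyme controls.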
Menin MLL FP FL – menin-MLL binding inhibition, fluorescein peptide; Fluorescence polarization, fluorescein-MLL peptide displacement from menin; FP activity change, % at 61.4 µM; 290,000 tested, under 10 active; AID 1766; inconclusive = falling polarisation curve, or a change in total fluorescence; inactive = total fluorescence flat and polarisation flat or rising; no compound was filed as active; the % refers to the polarisation; negative = inhibition;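 further: % of control where 0% means no effect; inhibitors lower the polarisation; unlabelled MLL peptide was the positive control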
* hit, by the source's call; ? = inconclusive; . = no result given; & = joins results of further samples; [ ] = dose if it differs, or a comment.

SMILES	Sfp inh	gsp antagonist	gsp agonist	TRPV1 potentiator	D2 PAM	ClpP mod	Menin MLL FP FL
Cc1nc(-c2ccc([N+](=O)[O-])cc2)c(-c2ccccc2)o1	13%	?	6%[15.4 µM]	-5	7	-3.2%	-0.1
CCCOc1ccc(C(=O)Nc2ccc(S(=O)(=O)N3C[C@@H]4C[C@@H](C3)c3cccc(=O)n3C4)cc2)cc1	.	-17%	.	1	-3	-15%	.
COc1ccccc1N1CCN(CCNC(=O)Nc2cccc(C)c2C)CC1	-7%	3%	18%[15.4 µM]	25	-39	32µM*	3.1
CCn1cc(Br)c(C(=O)NN)n1	-11%	3%	-7%	5	-3	-0.6%	-4.3
Cc1ccc(OCCn2ccnc2)c([N+](=O)[O-])c1	-13%	2%	4%	16	0	-1.3%	0.3
O=C(CN1C(=O)CCS(=O)(=O)c2ccccc21)NCCc1ccccc1	25%	6%	-3%	-1	-5	-1.2%	-1.0
COc1cc(C(=O)NCCN2C(=O)S/C(=C\c3ccc(F)cc3)C2=O)ccc1OCC(=O)N1CCOCC1	28%	6%	-3%	-13	-6	1.8%	3.9
CC(OC(=O)CCCN=C1NS(=O)(=O)c2ccccc21)C(=O)NC1CCCCC1C (stereo not given)	12%	-3%	?	2	-16	0.4%	.
S=C(Nc1ccc2nsnc2c1)N1CCCCC1	?	7%	16%[15.4 µM]	-11	4	1.8%	-16
COc1ccc(NC(=O)C(NS(=O)(=O)c2ccc3c(c2)CCCN3C(C)=O)C(C)C)c(OC)c1 (stereo not given)	8%	-3%	-3%	1	1	-5.1%	-1.5
CCCCn1c(N)c(N(CC(C)C)C(=O)c2cccc(S(=O)(=O)N3CCN(C)CC3)c2)c(=O)[nH]c1=O	.	8%	-32%[inhibitor]	2	-27	1.0%	.
CC(/C=C/C(=O)c1ccc(C)cc1)=C\c1ccccc1	?	-15%	-27%	6	-2	0.8%	-3.7
CCOc1cc(/C=N/n2cnnc2)ccc1OS(=O)(=O)c1ccccc1	-6%	-11%	-5%[15.4 µM]	8	-5	.	-3.4
CCN(CC)S(=O)(=O)c1ccc2c(c1)CC(C(=O)N1CCCC1)N2C(C)=O (stereo not given)	3%	-3%	10%	4	-10	0.6%	4.2
COc1ccc(C(=O)Nc2ccccc2)cc1S(=O)(=O)Nc1cc(C)on1	2%	11%	-15%	0	-8	1.7%	2.2
O=C(NCCC(=O)N(Cc1ccco1)Cc1cccs1)c1ccc(Br)cc1	.	-16%	-66%[inhibitor]	-9	-5	0.1%	.
Cc1ccc(S(=O)(=O)NCCOCCNS(=O)(=O)c2ccc(C)cc2)cc1	7%	-18%	-1%	5	0	-0.9%	1.8
CCC(=O)Nc1nnc(C)s1	0%	8%	18%	9	9	?	1.2
C[C@H]1C(c2ccc(F)cc2)=NN(c2ccccc2)[C@@H]1CO	-8%	2%	.	.	-3	4.2%	1.7[94.6 µM]
COCCN=c1scc(-c2cccs2)n1/N=C/c1ccc(O)c(O)c1O	7.1µM*	-19%	16%	-3	76*	-2.3%	12

Going on with the list:
SMILES	Sfp inh	gsp antagonist	gsp agonist	TRPV1 potentiator	D2 PAM	ClpP mod	Menin MLL FP FL
COc1cc(OC)c(NC(=S)Nc2cc(Cl)cc(Cl)c2)cc1Cl	-22%	?	5%[15.4 µM]	-13	-12	0.1%	3.2
O=C(O)c1ccc(NCc2nc3ccccc3n2CCOc2ccccc2Cl)cc1	12%	?	-44%[inhibitor]	-1	5	0.7%	-0.5
C=CCn1c(SCC(=O)NC2CCCC2)nnc1-c1ccccn1	21%	5%	-43%[inhibitor]	5	-7	-4.1%	.
CC(C)(C)CN1CCNC(=O)C1CC(=O)N1CCN(c2ccccc2)CC1 (stereo not given)	-28%	2%	-37%[inhibitor]	-8	-6	-7.2%	?
CC(C)C1Nc2ccc(S(=O)(=O)N3CCOCC3)cc2NC1=O (stereo not given)	19%	6%	?	7	-1	.	1.1
CC(=O)Oc1cc(C)cc2oc(=O)cc(-c3ccccc3)c12	17%	-5%	-2%	-14	-1	-0.4%	4.5
O=C1c2ccccc2NC2(CCCC2)N1N=C1CCCC1	18%	-8%	7%	5	-2	4.7%	-0.8
Cn1c(COc2ccc(Cl)cc2)nnc1SCC(=O)NC1CCCCC1	.	-5%	5%	.	8	-1.2%	.
Cc1ccc(SCCSc2ncccn2)cc1	18%	-27%	-2%[15.4 µM]	?	-23	1.9%	-2.2
Cc1[nH]n2c(=O)c3c(nc2c1-c1cccc2ccccc12)CCC3	14%	-13%	3%	-7	-40	?	1.7
Cc1ccc(CNC(=O)C2COc3ccccc3O2)cc1 (stereo not given)	1%	-12%	-3%	-10	?	2.0%	-12
Nc1nc(SCC(=O)c2cccs2)n[nH]1	2%	1%	8%	3	-5	.	-1.2
Cc1ccc(Cl)c(OCC(=O)N(C)CC(=O)Nc2ccc(N3CCOCC3)cc2)c1	.	4%	1%	12	3	-6.0%	.
Cc1ccsc1/C=N/N1CCN(C2c3ccccc3-c3ccccc32)CC1	7%	1%	-30%[inhibitor]	-7	-34	0.3%	3.1
N#CC1(Nc2ccc(Br)cc2)CCCC1	.	2%	-21%	.	-2	.	.
O=C(Nc1nc(-c2ccccn2)cs1)c1cc(Cl)ccc1[N+](=O)[O-]	45µM*	?	-9%[15.4 µM]	-8	-9	.	0.8
CCOC(=O)c1c(C)nc2sc(C(=O)Nc3ccc(OC)cc3)c(N)c2c1-c1ccc(OC)cc1	-5%	-5%	8%	-24	2	-1.6%	1.0
Cc1ccc(C)c(OCCC(=O)NCCc2ccc(S(N)(=O)=O)cc2)c1	6%	2%	-1%[15.4 µM]	-9	-7	-0.6%	.
CCCCCCCCCCCCCCCCn1cc[n+](C)c1	22µM*	20%&15%	-11%[15.4 µM]	-11&-22	-18&-4	1.2%&-0.5%	0.5&1.5
O=C(COC(=O)CNC(=O)c1cccs1)Nc1ccc(C(F)(F)F)cc1[N+](=O)[O-]	.	-4%	0%[15.4 µM]	-19	9	.	.

Following part
SMILES	Sfp inh	gsp antagonist	gsp agonist	TRPV1 potentiator	D2 PAM	ClpP mod	Menin MLL FP FL
Cc1ccc(NC(=O)c2ccc([N+](=O)[O-])s2)cc1S(=O)(=O)N1CCOCC1	.	?	2%[15.4 µM]	.	22	.	.
CCS(=O)(=O)N1CCN(c2cnn(-c3ccccc3)c(=O)c2Cl)CC1	-5%	-23%	-18%[15.4 µM]	-1	-2	.	5.8
Cc1ccc(-n2nnnc2SCC(=O)c2cc(C)n(CC3CCCO3)c2C)cc1 (stereo not given)	8%	0%	-11%	-4	3	4.2%	1.3
CCC(C(=O)Nc1cc(F)ccc1F)n1nc(C)c2c(C)n(-c3ccc(C)cc3)nc2c1=O (stereo not given)	-7%	?	-1%	8	-5	-0.8%&-1.2%	-3.0
COC(=O)c1ccccc1NC(=O)C(C)c1ccc([N+](=O)[O-])cc1 (stereo not given)	1%	-9%	28%	-6	2	0.0%	-1.4
O=C(CCc1ccccc1F)N1CCN(c2ccc(C(F)(F)F)cn2)CC1	19%	-16%	-38%[inhibitor]	0	-8	-14%	0.5
CCCCn1c(N)c(N(CC(C)C)C(=O)COC(=O)C2(c3ccccc3)CC2)c(=O)[nH]c1=O	.	1%	8%	-1	-22	-0.4%	.
Cc1ccc(C)c(Cc2c(C)nc3c(C(=O)N4CCOCC4)cnn3c2C)c1	89µM*	-7%	6%	10	-4	28µM*	10.0
O=C1CCCN1CC(O)CS(=O)(=O)Cc1ccc(Cl)cc1 (stereo not given)	.	3%	17%	.	-2	-0.4%	.
COc1ccc2nc(NC(=O)CSc3nnc(C)n3N)sc2c1	1%	0%	-1%	3	-6	2.6%	11
O=C(N/N=C/c1ccncc1)NC1CCCCC1	19%	5%	2%	10	-4	-3.2%	-1.3
O=C(Nc1ccc(Cl)cc1N1CCOCC1)C1CC1	5%	0%	0%	1	-46	-1.4%	.
CSc1nc(N)c2c(n1)N(C)C=NS2(=O)=O	.	7%	9%	.	-6	.	.
COc1ccc(-n2c(COc3ccc(Cl)cc3Cl)n[nH]c2=S)cc1	.	.	14%	.	-22	0.5%	.
Cc1ccsc1/C=C(\C#N)C(=O)NCc1cccnc1	5%	21%	-12%[15.4 µM]	2	-14	1.3%	6.3
CC(=O)Nc1ccc(C(=O)OCC(=O)NC(=O)NCc2ccccc2)cc1	.	.	1%	.	-8	-0.9%	.
CCn1c(=O)cc(SCC(=O)NCc2ccc3c(c2)OCO3)c2ccccc21	8%	-4%	?	?	-14	-6.8%	-1.4
COC(=O)[C@H](Cc1ccccc1)NC(=O)N1CCN(c2ccccc2)CC1	16%	-13%	-3%[15.4 µM]	-13	-10	-0.8%	2.0
O=C(CN(Cc1ccco1)C(=O)c1ccc(F)cc1)Nc1ccccc1Br	.	-8%	-6%[15.4 µM]	.	-15	-0.1%	.
CCCC(=O)N(CCN(Cc1ccccc1)C(=O)CCC)Cc1ccccc1	-4%	-13%	21%	-8	-10	-0.6%	-1.8

(cont.)
SMILES	Sfp inh	gsp antagonist	gsp agonist	TRPV1 potentiator	D2 PAM	ClpP mod	Menin MLL FP FL
O=C(c1ccccc1)n1c(=S)nc2ccccn21	14%	8%	0%	-13	6	-1.9%	10
O=C(Nc1nc2c(F)cc(F)cc2s1)C1CC1	11%	-4%	-41%[inhibitor]	-22	-2	-2.2%	-5.2
CN(Cc1ccccc1)C(=O)c1[nH]cnc1C(=O)NCC(=O)OCc1ccccc1	11%	1%	29%	20	-10	-0.3%	3.1
CCOC(=O)CCC(=O)N1CCOCCOCCOCC1	-5%	9%	-17%	6	-8	0.8%	0.1
CCOC(=O)C1=C(C)NC(=S)NC1c1ccc(OCC(=O)N2CCCCCC2)c(OC)c1 (stereo not given)	6%	-9%	4%	-6	-8	.	-0.8
COCn1cnc(-c2ccccc2)c1-c1ccccc1	.	-4%	27%	.	-2	.	.
O=C(NCc1ccco1)c1nc2c(nnn2Cc2ccccc2Cl)c(=O)[nH]1	-7%	-20%	0%	6	-12	0.5%	1.3
Cc1cnc([N+](=O)[O-])n1CCOC(=O)NC(=O)c1ccccc1	15%	-2%	5%[15.4 µM]	10	-4	.	2.1
Cc1ccc(NC2=Nc3ccccc3N3C2=Nc2c(c(C)nn2-c2ccccc2)C3c2ccc(O)c(O)c2)cc1 (stereo not given)	20%	-10%	?	-2	?	-3.8%	-24
